Compound activity (PubChem BioAssay)
Calb FLC – affects C. albicans growth with fluconazole; actives 0.57% (n = 300,000); C. albicans CaCi-2 (fluconazole-resistant clinical isolate) + fluconazole, Alamar Blue growth, 48 h; growth inhibition, % (concentration not given with the values);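 active means most replicates above 75%; inconclusive means exactly half above 75%; inactive means most below 75%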;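 further: all wells also contain fluconazole at 8 µg/ml as a sub-toxic cotreatment; 0% = median of DMSO wells and 100% = median of geldanamycin control wells; wells of about 8 µL received 7.5 nL stock; the first replicate is given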
MLL AF4-AF9 inh – inhibitors of human MLL-AF4/AF9 interaction; P42568; AlphaScreen, biotin-AF4 peptide binding to FLAG-AF9; inhibition, % at 10 µM; actives 0.47% (n = 350,000);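 active means every replicate reaching a set inhibition limit, whatever the replicate mean, cut at about 25% in these data; inconclusive means mean inhibition reaches that limit but some replicates miss it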;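 further: 0% = plate neutral control median and 100% = total signal loss; the record names both 10 and 1 µM as test concentration; the first replicate is given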
Target sequence (P42568 whole entry, looked up): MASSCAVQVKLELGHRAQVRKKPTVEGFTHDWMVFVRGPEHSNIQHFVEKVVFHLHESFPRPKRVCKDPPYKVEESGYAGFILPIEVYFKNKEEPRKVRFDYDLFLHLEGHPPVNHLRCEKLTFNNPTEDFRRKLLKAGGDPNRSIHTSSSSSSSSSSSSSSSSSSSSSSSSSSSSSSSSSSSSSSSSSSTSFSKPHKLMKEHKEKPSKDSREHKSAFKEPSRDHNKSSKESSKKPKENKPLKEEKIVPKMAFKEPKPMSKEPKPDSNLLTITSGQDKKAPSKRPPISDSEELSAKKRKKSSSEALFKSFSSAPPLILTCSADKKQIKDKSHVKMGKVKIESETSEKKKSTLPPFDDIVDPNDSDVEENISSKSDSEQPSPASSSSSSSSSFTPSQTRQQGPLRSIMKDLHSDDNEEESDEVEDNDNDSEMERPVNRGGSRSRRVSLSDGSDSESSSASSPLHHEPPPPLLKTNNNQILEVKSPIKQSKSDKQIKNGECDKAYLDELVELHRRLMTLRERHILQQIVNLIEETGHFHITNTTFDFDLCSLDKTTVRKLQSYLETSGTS
Beta cell apopt – blocks beta cell apoptosis. INS-1E cytokine-induced death, ATP luminescence, 48 h; percent of positive-control rescue, neutral wells zero. protection from apoptosis, % (concentration not given with the values). actives 0.8% (n = 300,000). AID 435005;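 active means all replicates at 75% or more, or half of them and the mean; inconclusive means half reach 75% but not the mean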;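 further: 0% = cytokine-treated negative control wells and 100% = positive control rescue; higher means more ATP so stronger rescue from cytokine killing; wells of about 40 µL received 100 nL stock; the first replicate is given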
Vif A3G – inhibitors of Vif binding to APOBEC3G peptide, primary screen, biochemical, TR-FRET, GST-Vif 1-94, biotin-A3G peptide, dose response retest (AID 1117319); TR-FRET GST-Vif / biotin-A3G peptide binding; higher % means a stronger effect; test concentration not given here; strong numbers were not always called active; inhibition, %; hits with a dose series show IC50 in µM; actives 0.57% (n = 260,000);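 active means above the screen mean plus three standard deviations and confirmed in dose response; inconclusive means results disagree or hit not tested in dose response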;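 further: Vif residues 1-94 fused to GST binding biotinylated APOBEC3G peptide 110-148; 0% = full assay without inhibitor and 100% = GST in place of GST-Vif; retest series ran down from 100 µM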
Bfl-1 A1 inh – inhibitors of the anti-apoptotic protein A1, read as caspase activation | caspase activation, % (no concentration beside the values) | actives 0.066% (n = 330,000) | MEF A1-2A-BIM cells, Caspase-Glo 3/7 luminescence, 3 h; percent of clofoctol response, vehicle zero;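 active means over half of replicate activation scores above 10%, or exactly half above 10 with the replicate mean above 10; inconclusive means replicate mean below 10 yet half the replicates above 10; inactive means over half of replicates below 10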;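 further: wells of about 30 µL received 50 nL stock; many hits fall short of the cut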
T cruzi repl – blocks replication of Trypanosoma cruzi; inhibition, % (no concentration beside the values); T. cruzi beta-gal in NIH3T3, luminescence, 90 h; AID 1885; actives 1.4% (n = 300,000);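 active means mean inhibition across valid replicates above about 55%, limit read from the data; inconclusive means mean below that limit but half or more replicates reach it; inactive means mean below it, under half of replicates reach it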;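 further: signal also drops with host cell toxicity which is not excluded here; 0% = plate median of DMSO wells and 100% = zero luminescence signal; higher percent means less beta-gal luminescence so fewer parasites; stock transfer was 50 nL into about 50 µL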
RanGTP-Impb inh – disruptors of Ran-importin-beta complex formation – biochemical, FRET, CFP-Ran, YFP-importin-beta, homogeneous, primary screen. cell-free CFP-Ran/YFP-importin-beta FRET ratio. inhibition, % (concentration not given with the values). actives 1.1% (n = 300,000);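 active means most replicates above 15%; inconclusive means exactly half above 15%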;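 further: 0% = DMSO wells and 100% = Ran loaded with GDP instead of GTP; wells of about 40 µL received 100 nL stock; the first replicate is given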
rRNA inh HTS – selective bacterial rRNA inhibition in E. coli; GFP signal change (wild-type ribosome), % (concentration not given with the values); AID 720706; E. coli WT GFP vs humanized-ribosome RFP mutants, fluorescence, 24 h; active compounds read low; DMSO median 0, no signal -100; actives 1.6% (n = 350,000);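 active means significant combined selectivity score with lowered wild-type GFP, culture density cut under 30%, mutant RFP and density less affected; inactive means any of these conditions unmet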; further: one replicate is shown; some compounds called inactive have numbers as strong as hits
rRNA inh HTS OD600 – recorded beside rRNA inh HTS, whose call it bears; OD600 change, %; measured here: OD600 growth;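 optical density of the mix in the first replicate; 0 = DMSO median and -100 = no signal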
rRNA inh HTS RFP – further read-out of rRNA inh HTS, marked with its call; RFP signal change, %; measured here: RFP humanized mutant strains;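 first replicate; 0 = DMSO median and -100 = no signal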
Starred values were filed as active, the others as inactive; ? = inconclusive; / = not tested or not shown.

SMILES	Calb FLC	MLL AF4-AF9 inh	Beta cell apopt	Vif A3G	Bfl-1 A1 inh	T cruzi repl	RanGTP-Impb inh	rRNA inh HTS	rRNA inh HTS OD600	rRNA inh HTS RFP
CCOc1ccc(NC(=O)COC(=O)c2cc(S(=O)(=O)N3CCCC3)ccc2C)cc1	/	-0.3	0	-2%	0.5	/	/	-9	-6	7.6
CCC(C)Nc1nc(N)c([N+](=O)[O-])c(NC2CCCCC2)n1 (stereo unspecified)	13	0.1	2	/	-1.0	7	-2.7	12	10	0.9
Cc1ccc(C2(c3noc(CN(C)CC4CCCCO4)n3)CCCC2)cc1 (stereo unspecified)	-5	2.9	2	1%	0.0	0	1.8	-2	1	1.9
O=C(Cn1ccc(C(F)(F)F)n1)NNC(=O)c1ccco1	/	0.1	0	-9%	0.8	/	/	5	21	-1.4
O=C(CS(=O)(=O)Cc1ccccc1)NCc1ccc2c(c1)OCO2	-3	-5.4	-5	-4%	1.1	7	-5.0	/	/	/
Cc1nn(-c2ccc(N3CCOCC3)nn2)c(C)c1CCC(=O)Nc1ccc(F)cc1	-18	-1.6	1	/	0.2	-5	2.6	-1	7	-0.4
Cc1ccc(N(CC(=O)N/N=C/c2ccco2)S(=O)(=O)c2ccccc2)cc1	1	0.0	-1	10%	0.8	-15	?	4	-3	4.8
CN1C(=O)N(c2ccc(Cl)cc2)C(C)(O)CC1(C)C (stereo unspecified)	-3	-5.8	-5	11%	-0.3	-6	-0.8	11	11	0.7
O=S(=O)(Nc1ccc(-c2csc(-c3ccccc3)n2)cc1)c1ccccc1	15	/	4	-5%	0.5	33	-4.9	/	/	/
COc1ccc(-c2ccc(-c3noc(C4CCCCC4)n3)c(OC)n2)cc1	-1	/	0	0%	0.1	21	19*	/	/	/
O=C(Nc1ccccc1)O/N=C/c1ccc(F)cc1	-3	-3.4	4	/	-4.8	-12	0.3	10	13	3.4
O=C(O)c1ccccc1C(=O)N1CCN(c2cccc(Cl)c2)CC1	1	/	-7	27%	1.9	-2	?	/	/	/
COc1ccc(C2C(C#N)=C(N)Oc3n[nH]c(C)c32)cc1Cn1cc([N+](=O)[O-])cn1 (stereo unspecified)	5	/	/	-4%	0.5	-9	-3.1	/	/	/
O=S(=O)(CCc1ccncc1)Cc1ccc2c3c(cccc13)CC2	2	-2.8	-11	6%	0.0	-3	0.7	-3	-3	4.1
COCCCNC(=O)c1ccc2nc3ccccc3c(=O)n2c1	-9	/	3	-2%	0.6	/	5.6	/	/	/
CC(=O)Oc1cccc(C(=O)Nc2ccccc2NC(=O)c2cccc(OC(C)=O)c2)c1	9	1.9	5	-4%	1.1	-5	-0.9	6	3	3.2
CCCSC1=NN2CCCC(=O)N=C2S1	-8	0.4	-1	3%	0.0	-16	1.7	5	-6	-4.5
Cc1ccccc1OCCNC(=S)Nc1ccccc1	5	/	1	1%	0.8	0	?	/	/	/
O=C(Nc1ccc2c(c1)OCO2)C1CCCN1C(=O)Nc1cccc(F)c1 (stereo unspecified)	-3	/	-2	-6%	0.6	-6	2.2	/	/	/
COCC(=O)NNC(=O)Cc1ccc(Cl)cc1	-2	0.5	0	?	-0.5	-1	-2.1	18	17	0.2
C=CCOc1ccc(/C(CC)=N/O)cc1OC	0	/	-3	-6%	0.9	13	6.0	/	/	/
CSCC[C@H](NC(=O)N1CCn2c1nc1ccccc12)C(=O)NCc1ccc2c(c1)OCO2	-1	6.1	-10	/	0.2	14	0.8	-2	-3	3.8
CCOC(=O)N/N=C(\C)c1ccc(C)o1	2	-4.2	6	-15%	-0.4	-14	1.9	16	8	-2.0
Cc1c(N(C)C(=O)COc2ccc3ccccc3c2)c(=O)n(-c2ccccc2)n1C	11	2.1	0	/	-0.1	-18	3.0	-1	7	-1.4
CC(C)Cc1cc(C(=O)O)c2ccccc2n1	30	/	-2	6%	0.3	7	?	/	/	/
Nc1nc(-c2ccc(Cl)cc2)nn1C(=O)c1cccs1	-3	0.7	-7	0%	-0.3	-12	1.5	-3	0	-2.1
CCN(CC)S(=O)(=O)c1ccc(NC(=O)c2cc(-c3cccs3)nc3ccccc23)cc1	-1	0.2	10	22%	0.9	38	0.2	/	/	/
CN1CCN(C(=O)CCc2ccc(S(=O)(=O)NC3CCCCC3)cc2)CC1	-17	1.4	-8	3%	-0.6	59*	0.4	18	5	0.5
CCn1cc(Br)c(C(=O)NCc2ccco2)n1	12	/	/	8%	0.5	-11	?	/	/	/
O=C(CCCCCNC(=O)c1ccccc1)N/N=C/c1ccccc1O	-3	/	2	19%	0.0	2	0.3	/	/	/
Cc1c(Cl)cccc1N/C(SCC(=O)N1CCCCCC1)=C(/C#N)c1nc2ccccc2s1	2	/	40	-59%	1.0	42	?	/	/	/
Cc1cc(C)c(S(=O)(=O)Nc2nnc(C(C)C)s2)c(C)c1	-4	-4.0	-5	/	2.6	8	-4.7	6	0	-0.9
CCOC(=O)c1ccc(NS(=O)(=O)c2ccc3c(c2)n(C)c(=O)n3C)cc1	35	-2.9	-1	-3%	-0.6	-13	-0.1	-3	-3	3.0
COc1cnc(-c2ccccn2)nc1NC(C)C	113*	-2.0	68	7%	0.5	77*	0.7	-62	-78	-21
COc1ccc(C(=O)OCC(=O)c2c(N)n(C)c(=O)n(C)c2=O)c(OC)c1OC	/	2.2	-4	/	2.5	/	/	0	9	-1.3
Cc1ccc(S(=O)(=O)CCc2nnc(NC(=O)C3CCCCC3)s2)cc1	1	-1.7	-4	17%	-0.6	-13	1.5	6	8	-2.7
Cc1nc(C)c(CCNC(=O)c2ccccc2)s1	13	2.3	-5	/	0.0	3	3.3	-2	-1	1.0
Cc1nn(-c2ccccc2)c(N)c1C(O)(CSc1nccn1C)C(F)(F)F (stereo unspecified)	0	/	-4	-6%	0.2	-5	-4.0	/	/	/
ClC1CCCCC1n1nnc2ccccc21 (stereo unspecified)	-32	-4.3	/	/	-0.4	-9	0.5	/	/	/
COC(=O)c1ccc(-c2ccc(/C=N/N3C(=O)C4C5C=CC(CC5)C4C3=O)o2)cc1 (stereo unspecified)	-11	-1.6	-10	/	-0.9	-9	3.3	0	-3	-1.2
CCN(CC(=O)Nc1c(F)cccc1F)C(=O)CCCc1c[nH]c2ccccc12	-3	-2.7	2	/	1.1	0	-1.4	-1	-3	1.0
CC(=O)c1ccc(Nc2nc3ccccc3nc2NS(=O)(=O)c2cccs2)cc1	4	-6.4	33	/	1.0	-7	2.9	-16	-14	1.6
COc1ccc(C(C)C)cc1S(=O)(=O)n1cnc(C)c1	-7	/	-2	0%	0.6	36	-0.5	/	/	/
O=C(Cc1ccccc1F)Nc1cccc2cccnc12	2	-7.2	-7	?	0.8	2	7.0	-1	7	2.2
Cc1c(C#N)c(O)[nH]c(=O)c1N=Nc1ccc(S(N)(=O)=O)cc1	-7	-1.3	-4	3%	-0.7	10	-0.4	19	12	3.5
COc1ccc(CCNC(=O)Cn2cnc3c(nnn3Cc3ccccc3F)c2=O)cc1OC	-13	1.8	3	20%	0.7	8	-1.3	13	7	1.3
CCNC(=S)N(Cc1ccc2c(c1)OCO2)C1CC(=O)N(c2ccc(OC)cc2)C1=O (stereo unspecified)	-5	/	3	15%	-1.3	3	2.3	/	/	/
O=C(N1CCOCC1)C1(c2ccccc2)CCCCC1	9	/	/	-4%	-0.7	-3	3.6	/	/	/
COc1cc2[nH]c3c(=O)n(CCN4CCOCC4)cnc3c2cc1OC	5	-5.6	-1	?	0.3	19	2.6	4	10	2.7
COc1ccc(NC(=O)c2ccc(CNc3c(N4CCCC4)c(=O)c3=O)cc2)cc1Cl	3	-40	3	-1%	0.7	-6	-0.3	6	3	-8.5
CC(=O)Nc1ccc(-c2cc3ccccc3o2)cc1	-18	/	3	14%	-1.3	4	-2.0	/	/	/
COCCSc1nnc(NC(=O)c2cc(C(=O)OC)cc([N+](=O)[O-])c2)s1	-10	-0.2	10	/	0.5	7	-2.3	-15	-11	-3.2
CCCOc1ccc(/C=C2\SC(=S)N(CC3CCCO3)C2=O)cc1 (stereo unspecified)	-2	/	-1	/	0.2	-8	5.9	/	/	/
O=C(CSc1nnc(CNC(=O)c2ccc(F)cc2)o1)Nc1nccs1	0	-2.9	-3	4%	-0.2	-20	6.0	4	9	2.3
COCCNC(=O)C(c1ccc(C)cc1)N(C(=O)CCC(=O)Nc1ccccn1)c1cccc(C)c1 (stereo unspecified)	-7	-0.7	-6	/	-0.3	8	0.1	8	16	-0.2
CCCC(=O)C1=C(O)C(C(=O)OC)C(C)(C)CC1=Nc1ccc(OC)cc1 (stereo unspecified)	4	-0.1	-4	-6%	0.0	10	2.0	-10	-14	-4.1
N#Cc1ccc(-c2nc3cc(Cl)ccc3c(=O)n2O)cc1	101*	-2.9	0	/	-1.2	-11	2.0	-49	-71	-17
O=C(COC(=O)C12CC3CC(CC(C3)C1)C2)Nc1ccccc1F	4	/	-3	-8%	0.1	0	5.7	/	/	/
O=C(COC(=O)/C=C/c1ccc([N+](=O)[O-])cc1)NC(=O)NC1CCCCC1	/	3.7	-3	/	1.1	/	/	-17	-13	1.0
C/C(=N\NC(=O)CN1CCN(Cc2ccccc2)CC1)c1cccs1	14	/	/	0%	0.8	2	2.5	7	5	-1.7

The list goes on:
SMILES	Calb FLC	MLL AF4-AF9 inh	Beta cell apopt	Vif A3G	Bfl-1 A1 inh	T cruzi repl	RanGTP-Impb inh	rRNA inh HTS	rRNA inh HTS OD600	rRNA inh HTS RFP
c1ccc(Nc2nn[nH]n2)cc1	19	3.7	-8	0%	0.2	-20	-0.2	-7	-2	-2.9
O=C(Nc1ccc(Cl)cc1)c1cccc(S(=O)(=O)Nc2ccccn2)c1	-3	0.4	1	/	-0.1	0	0.5	0	5	0.5
O=C(CN1CCN(c2ccccc2F)CC1)NCc1ccc(Cl)cc1	12	-3.5	-1	/	0.5	7	3.4	-14	-12	-1.1
Cc1ccc(C(c2nnnn2C2CCCC2)N2c3ccccc3CC2C)cc1 (stereo unspecified)	4	-1.9	21	/	0.5	20	-0.2	/	/	/
O=C(Nc1ccc2oc(=O)ccc2c1)c1ccco1	13	/	8	-7%	-0.8	3	2.9	/	/	/
N#CCCSCc1ccc(OCC(=O)O)cc1	-2	/	-3	5%	-0.6	-15	1.8	/	/	/
COc1ccccc1C(=O)NC(CCSC)C(=O)NCC(c1ccccc1OC)N1CCCC1 (stereo unspecified)	-13	?	/	-3%	-0.1	19	-3.8	12	18	0.9

3 entries out of the list above, ordered by the number in RanGTP-Impb inh, descending:
SMILES | RanGTP-Impb inh
O=C(Nc1ccc2oc(=O)ccc2c1)c1ccco1 | 2.9
O=C(Nc1ccc(Cl)cc1)c1cccc(S(=O)(=O)Nc2ccccn2)c1 | 0.5
Cc1ccc(C(c2nnnn2C2CCCC2)N2c3ccccc3CC2C)cc1 (stereo unspecified) | -0.2

An excerpt, so the mix of outcomes need not match the whole.
